High-throughput results from PubChem.
eIF4H inh: human eIF4H binding inhibitors, primary screen, translation initiation inhibitor project, biochemical, uHTS, fluorescence polarization; inhibition, % at 35 µM; 0.94% of 290,000 active; eIF4H fluorescence polarization binding assay; AID 2012, 2009; Eukaryotic translation initiation factor 4H (Homo sapiens), Q15056;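 active = 50% or more with normal probe brightness, or confirmed in later tests; inconclusive = above 50% with abnormal brightness, or retests that disagree; inactive = below 50% or failed in later tests; about a fifth of its hits are not listed in these tables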;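 note: calls also rest on retests at 20 µM and on dose response follow-up; 0% = protein and probe with vehicle and 100% = probe without protein; strong numbers were not always called active; many hits fall short of the cut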
Env fusion inh: inhibitors of HIV-1 Env-driven cell-cell fusion, primary screen, HeLa-JRFL effector, CEM21 target cells, luciferase | inhibition, % at 12.3 µM | 1.1% of 360,000 active;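 active = mean replicate inhibition score of at least 50 and every replicate individually at or above 50; inconclusive = only one of the two criteria met; inactive = mean below 50 and not all replicates reaching 50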;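 note: 0% = plate neutral controls and 100% = maraviroc near 300 nM; one replicate is shown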
Rce1 inhib: yeast Rce1p protease inhibitors, primary screen, biochemical, fluorescence, cell-free homogeneous | CAAX prenyl protease 2 (Saccharomyces cerevisiae (strain ATCC 204508 / S288c)), Q03530 | yeast membranes, quenched prenylated peptide cleavage fluorescence | calls only | 0.27% of 290,000 active | AID 2563, 2010;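 active = fall in fluorescence gain of 50% or more versus controls, with final raw signal at or below 3038400; inconclusive = same 50% fall but final raw signal above 3038400; inactive = fall in fluorescence gain under 50%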;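 note: plate controls were neutral control wells for no effect and wells lacking membranes for full effect; tested at 10 µM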
Target sequence (Q03530 whole entry, looked up): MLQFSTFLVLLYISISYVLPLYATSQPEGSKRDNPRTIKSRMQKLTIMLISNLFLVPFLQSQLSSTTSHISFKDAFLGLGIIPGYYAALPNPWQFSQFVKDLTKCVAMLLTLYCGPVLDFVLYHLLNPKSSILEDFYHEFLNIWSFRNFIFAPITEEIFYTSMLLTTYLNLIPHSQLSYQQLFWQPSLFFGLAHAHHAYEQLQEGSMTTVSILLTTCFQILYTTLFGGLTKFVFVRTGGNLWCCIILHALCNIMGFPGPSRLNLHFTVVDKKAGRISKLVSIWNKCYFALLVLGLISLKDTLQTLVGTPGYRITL
MT1-MMP act inh: blockers of MT1-MMP proenzyme processing, primary screen, HT1080 RFP-PRO-GFP cells, GFP/RFP fluorescence; GFP/RFP ratio fluorescence, overnight; percent of plate control window, DMSO zero; GFP/RFP ratio change, % at 20 µM; 0.061% of 360,000 active; AID 651647, 2012;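 active = GFP/RFP ratio change of at least 30% with cell ATP level not reduced by more than half and red fluorescence within 50% of control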; note: strong numbers were not always called active
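Assay system – RFP-PRO-GFP reporter HT1080 cells · Compound dosing – single dose of 20 µM compound, 1% DMSO final · Incubation – overnight compound exposure at 37 °C · Measure – GFP/RFP fluorescence ratio · Benchmarks – DMSO wells and RFP-L50D-GFP cells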
Yeast UUG start: modulators of yeast start codon fidelity, primary screen, whole organism, S. cerevisiae, single point, plate reader; S. cerevisiae UUG-firefly luciferase reporter, luminescence/redox ratio; 0.13% of 350,000 active; AID 602363, 2012; activity score, % at 18.7 µM;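 active = replicate mean at a twofold rise or more, about +100% in these data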;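 note: firefly luciferase made from a UUG start codon reports start codon fidelity; reporter light over untreated wells divided by growth signal over untreated wells; some hits fall short of that in this replicate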
PABP FP inh: PABP poly(A) RNA binding inhibitors, primary screen, biochemical, fluorescence polarization, uHTS. 1% of 290,000 active. Polyadenylate-binding protein 1 (Homo sapiens), P11940. inhibition, % at 35 µM;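 active = 50% or more with normal probe brightness, or confirmed in later tests; inconclusive = above 50% with abnormal brightness, or retests that disagree; inactive = below 50% or failed in later tests; about a fifth of its hits are not listed in these tables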;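 note: calls also rest on retests at 20 µM and on dose response follow-up; controls were probe without protein and protein plus probe with vehicle; some compounds called inactive have numbers as strong as hits; many hits fall short of the cut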
Target sequence (P11940 whole entry, looked up): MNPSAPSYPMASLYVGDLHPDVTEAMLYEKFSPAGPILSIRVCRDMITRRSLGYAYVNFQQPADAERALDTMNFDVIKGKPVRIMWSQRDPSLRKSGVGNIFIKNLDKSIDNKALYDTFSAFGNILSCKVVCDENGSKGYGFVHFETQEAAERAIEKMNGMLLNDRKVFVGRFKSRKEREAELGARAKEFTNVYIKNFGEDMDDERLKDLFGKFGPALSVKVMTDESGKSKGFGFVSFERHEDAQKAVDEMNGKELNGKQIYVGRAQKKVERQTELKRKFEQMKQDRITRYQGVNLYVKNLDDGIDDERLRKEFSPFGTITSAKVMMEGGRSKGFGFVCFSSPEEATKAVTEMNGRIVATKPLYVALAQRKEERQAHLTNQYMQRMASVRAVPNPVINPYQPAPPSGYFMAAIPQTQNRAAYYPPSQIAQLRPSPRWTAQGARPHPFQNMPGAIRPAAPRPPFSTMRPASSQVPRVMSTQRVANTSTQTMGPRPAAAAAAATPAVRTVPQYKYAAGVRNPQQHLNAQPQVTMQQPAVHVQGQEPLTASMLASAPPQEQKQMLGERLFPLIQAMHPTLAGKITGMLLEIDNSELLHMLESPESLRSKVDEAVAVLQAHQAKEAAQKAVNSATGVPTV
CSC inhib: cancer stem cell viability inhibitors, primary screen, luminescence. inhibition, % at 7.5 µM. cancer stem cell-like cells viability. 1.1% of 300,000 active. AID 2717, 2010;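 active = mean at 75% or more and at least half the replicates too; inconclusive = mean and replicates disagree; tested in HMLE shEcad cells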;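 note: 0% = median of negative and 100% = median of positive control wells; the first replicate is given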
MT1-MMP act inh RFP: further read-out of MT1-MMP act inh, marked with its call; RFP signal change, %; measured here: RFP expression control read;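 0 = vehicle wells; hits needed this value within 50% of zero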
Active calls of the source: *; i = inactive; ? = inconclusive; · = not tested or not shown; + = active, no number. An excerpt. The share of hits here may be higher or lower than overall.

The opening 2 records, ahead of the listing:
SMILES	eIF4H inh	Env fusion inh	Rce1 inhib	MT1-MMP act inh	MT1-MMP act inh RFP	Yeast UUG start	PABP FP inh	CSC inhib
O=C(CSc1ccc2c(c1)OCCO2)Nc1ccc2c(c1)OCO2	-0.5	·	i	-3.0	-9.1	-15.4	0.3	-3.6
c1ccc(-c2csc(NNC3=NCCCCC3)n2)cc1	-0.6	·	i	4.3	9.2	·	1.2	21.4

The list itself, previewed entries included:
SMILES	eIF4H inh	Env fusion inh	Rce1 inhib	MT1-MMP act inh	MT1-MMP act inh RFP	Yeast UUG start	PABP FP inh	CSC inhib
O=C(CSc1ccc2c(c1)OCCO2)Nc1ccc2c(c1)OCO2	-0.5	·	i	-3.0	-9.1	-15.4	0.3	-3.6
c1ccc(-c2csc(NNC3=NCCCCC3)n2)cc1	-0.6	·	i	4.3	9.2	·	1.2	21.4
CCOC(=O)CN(C#N)c1nc(N(C)C)nc(N(C)C)n1	7.1	-3.6	i	1.9	-0.8	-18.5	28.0	-0.4
O=C(Nc1ccc(N2CCOCC2)c(Cl)c1)c1ccc(-n2cnnc2)cc1Cl	1.3	·	i	2.8	4.6	-17.1	6.2	-7.6
O=C(CS(=O)(=O)c1ccc(Cl)cc1)Nc1nccs1	·	-0.8	·	-3.3	2.2	-10.1	·	·
O=S(=O)(/N=C(/c1ccccc1)N1CCOCC1)c1ccc(F)cc1	4.3	-0.4	i	1.7	1.0	-15.6	15.4	-8.0
COc1ccc(-n2cc(C(=O)c3cc4ccccc4oc3=O)c(C(C)=O)n2)cc1	-12.2	-46.9	i	8.3	-6.9	-10.2	-5.7	7.9
CC(C)(C)OC(=O)C[C@@H]1C/C=C\C[C@@H](CC(=O)N(CCO)Cc2ccccc2)C(=O)NC[C@H](c2ccccc2)OC1=O	·	?	·	-16.8	-0.4	-0.1	·	22.1
Cc1ccc(C(=O)C(OC(=O)c2cnccn2)c2ccccc2)cc1C (stereo not drawn)	-1.0	-14.5	i	6.5	4.9	·	-4.4	-15.5
O=C(CCC(=O)Nc1nnc(C2CCCCC2)s1)NCC1CCCO1 (stereo not drawn)	6.5	-58.5	i	3.2	4.2	10.8	6.4	8.1
Cc1nnc2n1CCCCC2	-2.8	-1.3	i	-1.2	4.1	4.0	-16.0	-11.2
Cc1[nH]nc2c1C(c1cccc(O)c1)C1=C(CC(C)(C)CC1=O)N2 (stereo not drawn)	-2.1	·	i	7.9	3.1	·	-4.2	13.4
Cc1cc(C)n2nc(CC(=O)NNC(=O)c3ccc(N(C)C)cc3)nc2n1	9.0	-1.6	+	-2.9	1.6	-18.0	5.7	9.0
Cc1ccc(C2c3[nH]c4ccccc4c3C[C@H]3C(=O)N(c4ccccc4C(=O)N4CCC(C(=O)O)CC4)C(=O)N23)cc1 (stereo partly drawn)	13.8	·	i	1.4	2.4	-1.4	8.0	-4.7
Cc1ccc(S(=O)(=O)N2CCOCC2)cc1NC(=O)COc1ccc(C(=O)c2ccccc2)cc1	·	-7.0	·	-0.7	-15.3	-5.8	·	-9.1
CC(C)c1ccc(NC2CCCN(C(=O)CCN3CCCCC3=O)C2)cc1 (stereo not drawn)	-2.1	·	i	0.0	-3.6	-14.7	0.8	-2.2
Cn1c(SCC(=O)Nc2ccc(Br)cc2)nc(O)cc1=O	-8.9	-42.5	i	-2.2	0.0	-13.6	-6.0	-6.4
COc1ccc(NC(=O)Cn2nc3n(c2=S)CCC3)cc1	10.1	·	i	-1.1	2.1	-26.5	-10.7	2.7
O=C(CSc1nnc(COc2ccccc2)o1)NC1CC2CCC1C2 (stereo not drawn)	-0.1	5.7	i	-1.9	5.5	-10.2	-8.0	-11.7
CCOc1nc(NCCO)nc(NCCC2=CCCCC2)n1	-10.0	-59.3	i	1.8	-0.1	5.6	3.6	·
CCOC(=O)c1[nH]c(C)c(C(=O)NC2CCCCC2)c1C	-6.5	-2.2	i	1.1	2.3	-10.4	-3.3	7.3
CC(=O)Nc1cccc(C(=O)OCC(=O)NCc2cc(C)c(O)c(C)c2)c1	·	7.8	i	-2.1	4.2	-5.9	·	-5.6
O=C(NCCc1cccc(Cl)c1)c1cccnc1	-4.5	-11.9	i	0.1	-1.5	-12.8	4.4	-13.4
Cc1ccc2c(c1)N(CC(=O)NCCCN1CCOCC1)C(=O)C(C(C)C)O2 (stereo not drawn)	·	-2.8	i	2.1	1.0	·	·	-5.4
COc1ccc(C(CNC(=O)C(=O)NC2CCCCC2)N2CCN(C)CC2)cc1 (stereo not drawn)	·	4.9	i	0.2	1.2	3.4	·	-4.1
CCc1cc(C(=O)c2ccc(OC)cc2)c(NC(=O)CC(C)(C)CC(=O)O)s1	-14.4	16.7	i	-8.2	-3.7	·	-5.8	9.6
CCOC(=O)C1(CCOc2ccccc2)CCN(Cc2cccc(-n3cccn3)c2)CC1	-1.9	-1.1	i	-5.3	-17.1	-5.3	-13.6	29.1
COC(=O)Cc1cc(=O)[nH]c(/N=C(\N)Nc2ccccc2C)n1	-5.0	-14.8	i	6.9	-3.2	4.6	0.4	-2.7
Cc1cc(C)n(C(=O)c2cc3c(s2)CCCC3)n1	-0.3	-12.1	i	-7.4	-2.2	-7.6	-13.9	-5.1
C=CCN(CC=C)C(=O)CN1C(=O)NC(c2ccccc2)(c2ccccc2)C1=O	-5.9	-5.3	i	-1.3	-1.2	-1.7	1.1	-21.5
CCN(C(=O)COc1ccc(C(=O)c2ccccc2)cc1)c1ccccc1	-6.3	16.6	·	-2.8	-5.4	-7.8	3.8	43.4
Cc1nnc(C)c2c(C)n(-c3ccc4ncccc4c3)c(C)c12	25.5	25.3	i	-7.0	2.7	-5.8	19.8	-18.6
Cc1ccc(C(=O)c2cn[nH]c2-c2cc(Cl)ccc2O)cc1	2.0	·	i	-6.8	-3.0	-24.7	-5.5	19.2
COc1ccc(OC)c(NC(=O)c2csc(Cl)c2OC)c1	-3.7	8.2	i	-2.6	-6.6	-13.3	-5.7	10.4
O=C(Nc1ccnc(-c2cccnc2)n1)c1ccc(Cl)c(Cl)c1	-7.3	-75.4	i	5.6	-2.0	-6.1	-16.1	·
CC(C)(C)NC(=O)CN(C(=O)CS(=O)CC(=O)Nc1ccc(F)cc1)c1ccc(F)c(Cl)c1 (stereo not drawn)	-3.2	11.8	i	0.9	0.7	6.6	5.9	-11.6
COc1ccc(CCNC(=S)N2CCN(S(=O)(=O)c3cccc(F)c3)CC2)cc1	·	19.2	i	-3.5	-1.5	4.6	·	-9.1
Cc1ccc(C)c(NC(=O)c2nnn(Cc3ccccc3C)c2N)c1	-5.7	-3.2	i	-5.2	-10.2	-14.8	0.2	18.5
COc1ccccc1CNC(=O)CN1C(=O)CSc2ccc(S(=O)(=O)N3CCCC3)cc21	-3.7	17.9	i	2.5	4.4	·	-3.4	·
CCCC(=O)Nc1ccc(NC(=O)c2ccccc2F)cn1	-8.9	-0.8	i	-2.2	1.2	-11.3	16.3	-4.3
CC(C)(C)C(=O)c1no[n+]([O-])c1/C(=N/O)C(C)(C)C	-10.4	·	i	1.9	-4.6	3.0	7.6	·
COc1cccc(NC(=O)COC(=O)Cn2c(C)csc2=O)c1	·	-5.3	·	0.2	1.1	-2.9	·	-15.1
Cc1ccc(C)c(NC(=O)c2cc(C)nc3ccccc23)c1	7.8	10.9	i	-0.1	-1.3	-14.6	6.0	-3.3
Cc1ccc(C(=O)Nc2ccncc2)o1	5.1	-8.8	i	4.4	0.9	-2.1	11.5	-5.0
Cc1ccc([C@H]2C[C@H](n3cc(C4CC4)nn3)[C@@H](O)CN2CC2CCCCC2)cc1	·	4.9	·	0.6	-13.6	-18.9	·	·
O=C(Nc1ccccc1C(F)(F)F)N1CCN(c2ccc3nncn3n2)CC1	7.0	·	i	11.1	4.4	-6.8	13.8	-6.3
COc1ccc(N2CCN(C(=O)CCCN3C(=O)c4cccc5cccc(c45)C3=O)CC2)cc1	-4.6	14.1	i	2.9	-8.1	3.7	-2.0	-11.7
Cc1cccc(NC(=O)c2ccccc2OCC(=O)N2CCOCC2)c1C	-7.4	·	i	3.4	0.4	-11.1	-6.0	-7.1
Cn1c(COc2ccccc2O)[n+](C)c2ccccc21	-12.5	10.4	i	2.1	0.8	-22.7	8.7	2.1
CC(C)c1cc(N2CCN(C(=O)c3ccco3)CC2)n2c(nc3ccccc32)c1C#N	9.3	-0.1	i	-8.2	-4.3	-4.0	10.5	-12.1
COc1cccc(-n2c(CN3CCN(c4ccccc4)CC3)nc3ccc([N+](=O)[O-])cc3c2=O)c1	12.7	·	i	4.1	-7.1	-18.2	16.1	-4.9
Cc1ccc(SCCNC(=O)c2cccc([N+](=O)[O-])c2C)cc1	9.5	·	i	-2.9	1.9	-10.8	-1.5	-9.6
CNC(=O)Cn1nc(C)c2ccccc2c1=O	3.4	14.9	i	1.5	4.9	-5.0	8.0	·
COc1ccc(OCc2cc(=O)c3ccc4c(c3o2)C=CC(C)(C)O4)cc1OC	·	12.0	·	1.9	-2.8	-10.4	·	15.3
O=C(NC1CCN(C(=O)c2cccc([N+](=O)[O-])c2)CC1)c1ccccc1	1.0	-3.5	i	0.3	4.3	-22.8	-0.7	-8.5
Cc1ccc(-n2c(SCC(=O)N3CCOCC3)nnc2-c2ccncc2)cc1C	-3.8	-13.9	i	-9.7	-5.4	-9.7	-1.8	-14.1
CCOC(=O)C(CC)n1cnc2c(oc3ccccc32)c1=O (stereo not drawn)	-9.2	-33.7	i	5.0	6.6	11.9	4.7	4.5
COC(=O)c1sccc1NS(=O)(=O)c1ccc(OC)cc1	3.9	·	i	1.5	-9.0	6.6	2.7	?
O=C(CN(C(=O)CCC(=O)Nc1ccccn1)c1ccccc1F)NCc1ccc2c(c1)OCO2	-8.5	15.9	i	-2.1	-0.6	-8.7	-2.1	-5.2
Cc1ccc(OCC(=O)Oc2c(C)cccc2C)cc1	-6.0	-27.0	i	2.1	3.2	-19.1	8.9	·
Continuation:
SMILES	eIF4H inh	Env fusion inh	Rce1 inhib	MT1-MMP act inh	MT1-MMP act inh RFP	Yeast UUG start	PABP FP inh	CSC inhib
N#Cc1nc(-c2cccc3ccccc23)oc1NCCN1CCCCC1	-19.1	-24.3	i	-2.4	-3.4	-9.6	-10.6	1.7
O=C(C1=COCCO1)N1CCN(c2nc3ccc([N+](=O)[O-])cc3s2)CC1	·	11.0	i	-0.1	-9.0	-17.3	·	-8.2
COc1ccccc1NC(=O)N(Cc1ccccc1)C1=NCC(C)S1 (stereo not drawn)	-1.1	-40.5	i	-3.1	3.8	-5.2	-0.8	-15.3
CCOC(=O)c1cc(C)n(Cc2cccc(OC)c2OC)c1C	-3.9	1.1	i	-3.1	-13.8	-2.4	-3.6	7.2
CC1CCCCC1NC(=O)c1ccc(S(=O)(=O)NCC2CCCO2)cc1 (stereo not drawn)	-9.0	-10.5	i	-2.2	-9.5	-17.1	3.6	-13.3
Cc1ccccc1-c1nc(CS(=O)CC(=O)NC2CC2)c(C)o1 (stereo not drawn)	-3.4	0.1	i	-2.5	1.4	-9.8	11.6	-17.3
